# Source: PubChem
# VDR inh: vitamin D3 receptor (human) inhibition. 400,000 tested, 0.93% active. P11473. AID 504847. VDR-SRC2-3 peptide fluorescence polarization, 2 h. Potency, µM, inactives show max response, negative = inhibition, actives largely listed as inhibitors; active = well fitted inhibition curve with a large enough effect; inconclusive = small, poorly fitted or top-dose-only effect, or another doubt; inactive = no such curve, though single readings can be large or run the other way; note: series mostly up to about 120 µM
# Target sequence (P11473 whole entry, looked up): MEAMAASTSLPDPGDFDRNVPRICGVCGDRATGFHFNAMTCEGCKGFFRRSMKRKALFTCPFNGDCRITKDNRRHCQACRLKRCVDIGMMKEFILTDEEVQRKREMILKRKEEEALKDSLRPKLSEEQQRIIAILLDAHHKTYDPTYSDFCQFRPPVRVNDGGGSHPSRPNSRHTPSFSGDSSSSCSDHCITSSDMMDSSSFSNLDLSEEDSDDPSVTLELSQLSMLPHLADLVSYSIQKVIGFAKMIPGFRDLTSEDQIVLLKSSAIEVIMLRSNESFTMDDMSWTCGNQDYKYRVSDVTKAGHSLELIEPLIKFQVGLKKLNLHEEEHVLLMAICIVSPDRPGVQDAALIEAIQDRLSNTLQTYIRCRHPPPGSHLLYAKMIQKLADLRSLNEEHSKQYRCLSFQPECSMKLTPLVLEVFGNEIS
#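 The screen uses fluorescence polarization to detect compounds that interfere with recruitment of the SRC2-3 coactivator peptide to VDR; plates are read after 2 h at room temperature.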
# Starred values were filed as active, the others as inactive; ? = inconclusive; & = joins results of further samples. % is set by controls: 0 for no effect and ±100 for the full control effect; potency is the fitted concentration of half-maximal effect.
canonical_smiles,VDR inh
O=[N+]([O-])c1ccc(N2CCN(c3ccccc3O)CC2)cc1,-12%
COc1ccc(Cn2c(=O)c3cccnc3n(CC(=O)Nc3c(C)cc(C)cc3C)c2=O)cc1,5%
Cc1noc(C)c1S(=O)(=O)N(C)Cc1ccccc1,-4%
CN(CC(=O)NCCc1ccc(F)cc1)Cc1cccc(Cl)c1,-13%
CC1=C(C(=O)Nc2ccccc2C(=O)NC2CCCCC2)SCCO1,10%
COc1ccc(CNC(=O)C2CCN(C(=O)N3CCOc4ccc(C)cc43)CC2)cc1,5%&-10%
COc1ccc(/C(O)=C2/C(=O)C(=O)N(CC3CCCO3)C2c2cccc(O)c2)cc1 (stereo not drawn),7%
O=C(COC(=O)Cc1ccccc1F)NNC(=O)c1ccc(Cl)cc1,-4%
Cc1ccc(S(=O)(=O)N2CCN(C(=O)c3ccccc3-c3nc4ccccc4s3)CC2)c(C)c1,-9%
COc1ccccc1NC(=O)C1=C(C)NC(=O)NC1c1ccc(C)s1 (stereo not drawn),-15%
Cn1nc(C(=O)OCC(=O)Nc2ccc3ccccc3c2)c2ccccc2c1=O,0%
COc1ccc(N2CCN(CCCNC(=O)c3c(C)nn(-c4ccc(F)cc4)c3-n3cccc3)CC2)cc1,-7%
O=C(c1ccccc1)c1ccc2nc(Nc3cc(Cl)ccc3O)c3nncn3c2c1,3%
CC1(c2ccccc2)NC(=O)N(CC(=O)Nc2ccccc2C(=O)N2CCCCC2)C1=O (stereo not drawn),-25%
COc1ccc(C(C(=O)NCC2CCCO2)N(C(=O)c2snc(C(N)=O)c2N)c2ccc(C)cc2)cc1OC (stereo not drawn),-9%

# The results go on.
canonical_smiles,VDR inh
COc1ccc(-c2ccc3c(c2)S(=O)(=O)c2cccc(C(=O)N4CCN(c5c(Cl)cncc5Cl)CC4)c2C3=O)cc1OC,-20%
COc1ccc(C2CC(c3c(Cl)cccc3Cl)n3nc(N)nc3N2)cc1 (stereo not drawn),-24%
Cc1cccc2sc(NC(=O)C3c4ccccc4Oc4ccccc43)nc12,1%
CCOc1ccc(-c2cc(C(=O)NCCc3ccc(C)cc3)c3ccccc3n2)cc1,9%
COc1cccc(CC2(CO)CCCN(Cc3cn[nH]c3C3CCCCC3)C2)c1 (stereo not drawn),-6%
COc1ccc(NC(=O)COC(=O)Cc2c(F)cccc2Cl)cc1,9%
NNC(=S)NCc1ccco1,-5%
COc1ccc(NC(=O)Cn2c(-c3ccc(OC)cc3)cn(-c3ccc(C)cc3)c2=O)cc1,6%
COc1cc(CN2CCN(C3CCC3)CC2CCO)cc(OC)c1 (stereo not drawn),-17%
O=C(CN1N=C(c2ccc(Cl)cc2)CCC1=O)NCc1cccnc1,19%
N#Cc1c(NC(=O)CSc2ncc(-c3ccccc3)n2CC2CCCO2)sc2c1CCCC2 (stereo not drawn),7%
COc1ccccc1C(=O)Nc1ccc(OCc2cc(=O)n3cc(C)sc3n2)cc1,-8%
COCC(=O)N1CCC(Oc2ccc(C(=O)NCc3csc(C(C)C)n3)cc2)CC1,-3%
O=S(=O)(c1ccccc1)N1CCC[C@@]2(CCN(Cc3cc(C(F)(F)F)cc(C(F)(F)F)c3)C2)C1,?
CC(=O)c1cccc(NC(=O)COC(=O)Cn2cnc3ccccc32)c1,2%

# Ordered by SMILES length (smallest number first): part of the list above.
canonical_smiles,VDR inh
COc1cc(CN2CCN(C3CCC3)CC2CCO)cc(OC)c1 (stereo not drawn),-17%
Cc1cccc2sc(NC(=O)C3c4ccccc4Oc4ccccc43)nc12,1%
COc1ccc(C2CC(c3c(Cl)cccc3Cl)n3nc(N)nc3N2)cc1 (stereo not drawn),-24%
COc1ccccc1C(=O)Nc1ccc(OCc2cc(=O)n3cc(C)sc3n2)cc1,-8%

# Additional compounds.
canonical_smiles,VDR inh
COc1ccccc1CNC(=O)CCS(=O)(=O)c1ccc2c(c1)CC(C)N2C(=O)C1CC1 (stereo not drawn),-1%&-2%
Cc1ccc(NC(=O)N[C@H](C(=O)O)C(C)C)c(C)c1,1%
Cc1ccc(Nc2nnc(-c3ccc(C)c(S(=O)(=O)N4CCOCC4)c3)c3ccccc23)c(C)c1,-6%
Cc1ccc(N(C(=O)Nc2ccccc2)C2=NCCC2)cc1,25%
Cc1ccc(S(=O)(=O)N(CCCN(C)C)Cc2ccc3c(c2)OCO3)cc1,-13%
COc1ccc(-c2nc3ccccc3n2Cc2ccc(C)cc2)cc1,13%
CCCC1C2CN(C(C)=O)CC=C2C(C#N)=C(N)C1(C#N)C#N (stereo not drawn),-16%
COc1cc(-c2nn3c(-c4cccnc4)nnc3s2)cc(OC)c1OC,1%
CC(=O)Nc1ccc(NC(=O)C2CCN(S(=O)(=O)c3cccc4nonc34)CC2)cc1,2%
CCc1ccc(CN2CCC(Oc3ccc(C(=O)NCc4ccccn4)cc3)CC2)o1,-2%
CC(C)O,3%
Cc1cc(C)cc(OCC(=O)OCC(=O)NCCC2=CCCCC2)c1,2%
O=C(O)CSCc1nc2ccccc2[nH]1,-1%
CCC(=O)N1CCc2cc(S(=O)(=O)NC(Cc3ccccc3)C(=O)NCc3ccccc3)ccc21 (stereo not drawn),-17%
Cc1ccc(OCC(O)CNS(=O)(=O)c2ccccc2C(=O)N2CCCCC2)cc1 (stereo not drawn),-8%

# (cont.)
canonical_smiles,VDR inh
N#CCS(=O)(=O)c1ccccc1,-16%
CCn1c(SCC(=O)O)nnc1-c1cccnc1,4%
CC(C)c1cccc(C(C)C)c1OC(=O)[C@H]1OC(C(C)(C)C)=C[C@@H]1c1ccccc1,-8%
COc1ccc(OC)c(S(=O)(=O)Oc2ccc(N)c3ccccc23)c1,-12%
O=C(CSc1ccccn1)Nc1cccc2ccccc12,-13%
CCC(=O)N1c2ccc(S(=O)(=O)CCC(=O)N3CCN(c4ccccc4)CC3)cc2CC1C (stereo not drawn),-7%
C/C(=N\NC(=O)c1ccn(C)n1)c1ccco1,8%
Cc1noc(C)c1CSCC(=O)Nc1cc(Cl)ccc1N1CCOCC1,-1%
O=C(Nc1nncs1)c1cc(-c2ccco2)nc2ccccc12,-4%
COc1ccc(-n2ccnc(NCc3ccccc3OC)c2=O)cc1,19%
COc1ccc(NS(=O)(=O)c2ccc(F)c(Cl)c2)cn1,79µM*
COc1cccc(NC(=O)Nc2nc(SC)ns2)c1,13%
CCCc1nc(-c2ccccc2O)n(-c2ccccc2)n1,-12%
O=C(C(=O)N1CCN(c2cccc(Cl)c2)CC1)c1cn(CC(=O)N2CCOCC2)c2ccccc12,3%
CCc1cccc2c(C(=O)COC(=O)c3cnc(C)cn3)c[nH]c12,-12%

# (more compounds)
canonical_smiles,VDR inh
CCC(=O)N/C(=N/c1nc(C)cc(C)n1)Nc1ccc(C)cc1,3%
C=CCCC(=O)Nc1nc(C)c(-c2csc(Nc3cc(OC)ccc3OC)n2)s1,-16%
S=C(NCc1ccco1)N/N=C/c1ccncc1,8%
O=C(Nc1ccccc1)Nc1cccc2ccccc12,4%
COc1ccc(/C=N/N=C(\N)c2nonc2N)cc1OC,-8%
O=C(COc1ccccc1)OC(C(=O)c1ccccc1)c1ccccc1 (stereo not drawn),-10%
Cc1nn(-c2ccccc2)c(Cl)c1/C=N/NC(=O)c1ccccc1F,-6%
Cc1ccc(S(=O)(=O)CC(=O)Nc2ncc([N+](=O)[O-])s2)cc1,10%
CC(=O)NCCOc1ccc(C(=O)O)cc1,-15%
COc1ccc(NC(=S)N(CCN2CCCCC2)Cc2ccco2)cc1,2%
CC(=O)c1c(C)[nH]c(C(=O)COC(=O)c2cccc(S(=O)(=O)N(C)c3ccccc3)c2)c1C,-5%
Cc1ccc(-c2noc(CSc3nnc(-c4ccc(Cl)cc4)n3C)n2)cc1,17%
C/C(CCc1ccccc1)=N\NC(=O)CCc1ccccc1,-8%
O=C(N/N=C/c1ccoc1)c1ccccc1Br,0%
c1ccc(-c2n[nH]c3ccccc23)cc1,-12%

# New compounds follow.
canonical_smiles,VDR inh
c1cnc(N2CCN(Cc3ccc4c(c3)OCO4)CC2)nc1,0%&-15%&-14%&1%&0%
CCOc1nc2ccccc2cc1C=O,-14%
Cc1ccc2[nH]cc(CCCN3C(=O)c4ccccc4C3=O)c2c1,-24%
CCOC(=O)C1CCN(C(=O)C2CCCN(S(=O)(=O)c3ccc(OC)c(Cl)c3)C2)CC1 (stereo not drawn),0%
COCCNC(=O)CCSc1nc(-c2ccc3c(c2)OCO3)cc(C(F)(F)F)n1,-14%
COc1cccc(C(c2c(NC(=O)c3ccco3)sc(C)c2C)N2CCOCC2)c1 (stereo not drawn),2%
O=C(O)C1C2CCC(C2)C1C(=O)Nc1cccc([N+](=O)[O-])c1 (stereo not drawn),4%
CCNCc1cc(Br)c(OCC(=O)Nc2ccccc2)c(OC)c1,-6%
COCCCn1c(=O)/c(=C\c2ccccc2OC(F)F)s/c1=C(/C#N)C(N)=O,-3%
CC(=O)C1=C(C)NC(=O)CC1c1ccc(Br)cc1 (stereo not drawn),-8%
CCN(CC)S(=O)(=O)c1ccc(C(=O)Nc2cc(C)cc(C)c2)cc1,-3%
Cc1cc(N2CCN(c3ccccn3)CC2)n2cc(-c3ccccc3)nc2n1,24%
Cc1cc(C)c(S(=O)(=O)c2cc(F)ccc2C)c(=O)[nH]1,8%
Cc1cc(C(F)(F)F)n2nc(-c3sccc3-n3cccc3)cc2n1,-12%
O=C(Nc1nc(-c2ccccc2)cs1)c1ccc(=O)[nH]c1,13%

# The results go on:
canonical_smiles,VDR inh
N#C/C(=C/c1ccc(N2CCCCC2)o1)C(=O)NCCc1c[nH]c2ccccc12,-16%
OCCN1CCN(CCOc2cccc(Cl)c2)CC1,-8%
Cc1cccc(-n2cc(-c3ccccc3)c3c(=O)[nH]cnc32)c1,-21%
Cc1ccc(N2CC(NC(=O)c3ccccc3C(F)(F)F)CC2=O)cc1C (stereo not drawn),12%
COc1ccc(CCN(C)Cc2c(O)ccc3ccccc23)cc1OC,?
COc1ccc(OC)c(NC(=O)CCCSc2ccccc2)c1,8%
COc1cc(SC)ccc1C(=O)Nc1ccc2c(c1)OCCO2,2%
OCC[C@@H]1C[C@H](O)[C@@H](O)[C@@]2(OCCc3ccccc32)O1,-7%
O=C(COC(=O)c1cccc2c1C(=O)c1ccccc1C2=O)NC1CCCCC1,-8%
OCCOCCN1CCN(C2=Nc3ccccc3Sc3ccccc32)CC1,-11%&-6%&7%&-5%
CCOC(=O)c1cc(OC(=O)c2ccccc2Cl)n(-c2ccccc2)n1,3%
COc1ccc(/C=C/C(=O)c2cccc(-n3cnnn3)c2)cc1O,1%
CN1CCN(NC(=O)c2cc(Br)ccc2Cl)CC1,5%
O=C(CN1C(=O)/C(=C/c2ccccc2)SC1=S)Nc1cccnc1,10%
CCCOCc1cc(CN2CCN(c3cccc(Cl)c3)CC2)c(O)c2ncccc12,8%

# Carrying on.
canonical_smiles,VDR inh
COc1ccc2c(c1)SC(C)CC2=O (stereo not drawn),-12%
Cc1cc(C)nc(SCC(=O)Nn2cnnc2)n1,6%
COc1cccc(/C=C/C(=O)Nc2ccc(C(=O)Nc3cccc(S(N)(=O)=O)c3)cc2)c1OC,-16%
CCOc1ccccc1NC(=O)N1CCCC1C(=O)NCc1ccco1 (stereo not drawn),-9%
COc1ccc(C2C(C(=O)NCc3cccnc3)c3ccccc3C(=O)N2C)cc1OC (stereo not drawn),2%
Cc1ccc(OCCn2c(CNc3cccc(C)c3)nc3ccccc32)cc1,10%
CC(CN1CCOCC1)OC(=O)C(c1ccccc1)c1ccccc1 (stereo not drawn),4%
O=C(NNC(=S)NC(=O)c1cccc([N+](=O)[O-])c1)c1ccc(Br)cc1,9%
NS(=O)(=O)c1ccc(NC(=O)/C=C/c2ccc3c(c2)OCO3)cc1,2%
CCCc1cc(=O)[nH]c(SCc2cc(Cl)ccc2OC(F)F)n1,-3%
O=C(OC1CCOC1=O)c1cc(-c2ccc(Br)cc2)nc2ccccc12 (stereo not drawn),11%
O=[N+]([O-])c1ccccc1/C=C/C=N/n1c(-c2cc(-c3ccccc3)n[nH]2)n[nH]c1=S,-7%
COc1cccc(CNC(=O)c2c(O)nc3ccccn3c2=O)c1,0%
Cc1cc2c(cc3c(SCc4cccc(F)c4)nnc(C)n32)o1,0%
Cc1cc2cc(CNC(=S)NC3CCCCC3)ccc2n1C,6%

# Four compounds drawn at random from the list so far:
canonical_smiles,VDR inh
CCCc1cc(=O)[nH]c(SCc2cc(Cl)ccc2OC(F)F)n1,-3%
Cc1cc2c(cc3c(SCc4cccc(F)c4)nnc(C)n32)o1,0%
O=[N+]([O-])c1ccccc1/C=C/C=N/n1c(-c2cc(-c3ccccc3)n[nH]2)n[nH]c1=S,-7%
CCOc1ccccc1NC(=O)N1CCCC1C(=O)NCc1ccco1 (stereo not drawn),-9%

# (cont.)
canonical_smiles,VDR inh
O=C(Cc1cccs1)Nc1cccc(-c2nc3ccccc3[nH]2)c1,1%
COc1ccccc1CN(C)C(=O)c1ccc(COc2ccccc2)cc1,17%
CC(C)c1ccc2[nH]c(O)c(N=NC(=O)c3ccc(CSc4nncn4C)cc3)c2c1,-8%
Cc1ccccc1-c1noc(CCC(=O)NCC2CCCO2)n1 (stereo not drawn),8%

# Molecules shown so far with a CF3 group, in the order listed:
canonical_smiles,VDR inh
O=S(=O)(c1ccccc1)N1CCC[C@@]2(CCN(Cc3cc(C(F)(F)F)cc(C(F)(F)F)c3)C2)C1,?
COCCNC(=O)CCSc1nc(-c2ccc3c(c2)OCO3)cc(C(F)(F)F)n1,-14%
Cc1cc(C(F)(F)F)n2nc(-c3sccc3-n3cccc3)cc2n1,-12%
Cc1ccc(N2CC(NC(=O)c3ccccc3C(F)(F)F)CC2=O)cc1C (stereo not drawn),12%

# Some of the compounds tested; rates above refer to the full screens.
